D2 potentiator = human D2 receptor positive allosteric modulation | 0.23% of 360,000 active | DiscoveRx D2 beta-arrestin cells, luminescence, 90 min; 100% = 57 uM dopamine signal | P14416 | potentiation, % (no concentration beside the values); active = potentiation of 50% or more; inconclusive = 30% to 50%; inactive = 30% or less;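 also: compound concentration not given in the record; tested on top of an EC20 dose of dopamine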
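D2 cells co-treated with compound plus 50 nM dopamine (EC20) for 90 min at 37 deg C to detect potentiation. Beta-arrestin recruitment was read as enzyme-fragment luminescence after 1 h at ambient temperature. Full response was set by 57 uM dopamine.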
PINK1 expr mod = PINK1 expression modulation | 0.2% of 410,000 active | Potency, µM (highest dose often 76.6 µM), inactives show at the top dose activation (PINK1 increase), most hits filed as activators | PINK1 immunofluorescence, high-content cytometry, 24 h; active = well fitted activation curve with a large enough effect; inconclusive = small, poorly fitted or top-dose-only effect; inactive = flat fitted curve, though single readings scatter; cell line not stated here;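 also: potency is read from the fitted curve at half-maximal effect; % of control where 0% means no effect; nearly all actives have a fitted effect of over 65% in size; a mitochondrial uncoupler was the plate control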
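Readout is PINK1 immunofluorescence, quantified alongside mitochondrial, cell and nuclear markers by laser-scanning microplate cytometry. Cells from a stable line were exposed to compound titrations (5 concentrations) for 24 hours, with CCCP controls.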
Six1-Eya2 blk = inhibitors of human Six1/Eya2 interaction; AID 651725; AlphaScreen GST-Six1/His-Eya2 binding, biochemical; hits give low values; control for the full effect not named in the record; 0.56% of 360,000 active; activity change, % (concentration not given with the values); Q15475+O00167; in the data active = activity change below about -65%; inconclusive = about -30% to -65%; inactive = above about -30%; also: % is scaled to controls: 0 for no effect and ±100 for the full control effect
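Six1/Eya2 binding was read as AlphaScreen signal after compounds were pinned into GST-Six1 plus His-tagged Eya2 (5X stock 250/500 nM) in pH 8.0 Tris/NaCl/TCEP buffer, beads added, then incubated 1 h, 37 C, dark.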
CtBP-E1A inh = blocks the CtBP interaction with E1A; AlphaScreen GST-E1A/His-CtBP binding, 1536-well; hits give low values; control for the full effect not named in the record; activity change, % (concentration not given with the values); 0.49% of 340,000 active; AID 651724; in the data active means activity change below about -65%; inconclusive means about -30% to -65%; inactive means above about -30%; also: % is scaled to controls: 0 for no effect and ±100 for the full control effect
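In 5 uL wells, 23 nL compound meets equimolar GST-E1A and His-CtBP (5X stock 125 nM each) for 2 h, 37 °C. Beads (5X, 50 ug/mL) then 1 h, 37 °C, dark.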
Sfp PPTase inh = blocks B. subtilis Sfp PPTase activity; 3.5% of 310,000 active; Biochemical Sfp PPTase activity, qHTS; Potency, µM, for the others: max response, negative = inhibition, actives largely listed as inhibitors; active = well fitted inhibition curve with a large enough effect; inconclusive = small, poorly fitted or top-dose-only effect, or another doubt; inactive = no such curve, though single readings can be large or run the other way;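 also: the enzyme is Sfp with the accession as filed and its product quenches rhodamine fluorescence; potency is read from the fitted curve at half-maximal effect; 0% = enzyme reaction without inhibitor and -100% = no enzyme wells; top concentration of the series not given in the record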
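After 15 min at room temperature with compound, 15 nM Sfp received 5 uM rhodamine-CoA plus 12.5 uM BHQ-2-ybbR (50 mM Hepes pH 7.6, 10 mM MgCl2). Rate came from the fluorescence difference over 30 min, ex 525/em 598 nm.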
D2 agonist = agonists of human D2 dopamine receptor (beta-arrestin) | activation, % (test concentration not listed) | 0.084% of 360,000 active | DiscoveRx PathHunter D2 beta-arrestin, luminescence, 90 min; 100% = 57 uM dopamine signal | P14416 | AID 624465; in the data active = activation above about 40%; inconclusive = about 15% to 40%; inactive = below about 15%; also: compound concentration not given in the record; the text of the record calls up to 30% inactive
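DiscoveRx PathHunter D2 beta-arrestin cells (2,100/well) attached overnight, then compound-stimulated 90 min at 37 C in HBSS/10 mM HEPES/0.1% Tween-20 buffer; beta-galactosidase complementation read by luminescence after 1 h at ambient temperature. Dopamine 57 uM final (EC100) as control.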
TRPV1 PAM = human TRPV1 potentiation. TRPV1-expressing cells, Fluo-8 calcium influx, capsaicin EC20 potentiation; host cell line not named in the record; control for the full effect not named in the record. 0.02% of 320,000 active. Q8NER1. potentiation, % at 8.33 µM; active means potentiation above 80%; inconclusive means 30% to 80%; inactive means below 30%; also: 0% is about no effect
Target sequence (Q8NER1 whole entry, looked up): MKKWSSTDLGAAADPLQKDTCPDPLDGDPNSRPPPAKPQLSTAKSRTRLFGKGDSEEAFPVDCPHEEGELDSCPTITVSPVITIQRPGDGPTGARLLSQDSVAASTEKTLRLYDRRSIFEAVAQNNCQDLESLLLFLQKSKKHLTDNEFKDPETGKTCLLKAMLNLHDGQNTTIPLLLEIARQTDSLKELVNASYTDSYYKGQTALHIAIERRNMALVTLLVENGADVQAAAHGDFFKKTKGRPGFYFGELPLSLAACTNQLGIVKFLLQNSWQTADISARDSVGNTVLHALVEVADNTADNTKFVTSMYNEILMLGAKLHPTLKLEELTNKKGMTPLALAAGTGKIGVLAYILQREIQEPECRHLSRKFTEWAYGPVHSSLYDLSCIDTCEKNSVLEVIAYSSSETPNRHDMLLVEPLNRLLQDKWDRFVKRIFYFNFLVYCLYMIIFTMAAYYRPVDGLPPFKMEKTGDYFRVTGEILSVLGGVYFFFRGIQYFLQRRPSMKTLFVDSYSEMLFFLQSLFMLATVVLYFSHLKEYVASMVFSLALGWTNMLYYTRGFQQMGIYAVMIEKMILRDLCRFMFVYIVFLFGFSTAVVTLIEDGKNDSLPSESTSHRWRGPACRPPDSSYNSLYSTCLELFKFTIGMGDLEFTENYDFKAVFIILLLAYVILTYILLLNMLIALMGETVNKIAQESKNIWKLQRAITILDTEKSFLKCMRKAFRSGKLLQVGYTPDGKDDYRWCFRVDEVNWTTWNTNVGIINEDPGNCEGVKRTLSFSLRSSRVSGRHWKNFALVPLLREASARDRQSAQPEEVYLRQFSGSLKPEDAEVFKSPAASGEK
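TRPV1-expressing cells were cultured overnight at 35.5C and loaded with Fluo-8 calcium dye for 40 to 90 min at room temperature. After a 10 s baseline, compound was added and calcium influx was read kinetically for 3 min (ex 480/em 520 nm).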
Active calls of the source: *; ? = inconclusive; · = not tested or not shown; [ ] = another dose, or the depositor's remark. This is a random part of the collection (roughly 3.7% active in at least one column).

structure	D2 potentiator	PINK1 expr mod	Six1-Eya2 blk	CtBP-E1A inh	Sfp PPTase inh	D2 agonist	TRPV1 PAM
CCCN1CCC(=O)N([C@H](COc2ccccc2)c2ccccc2)CC1	-20	0.4%	-4	0	-1%	-2.3	-2
O=C(O)C1=C[C@@H](c2csc3ccccc23)C[C@@H](OCc2ccc(CO)cc2)O1	-4	3.0%	?	·	17%	1.7	7
CCc1cc2cc(C(=O)Nc3ccccc3F)sc2s1	-1	13%[38.3 µM]	12	19	16%	-0.2	9
Cc1[nH]n(C2=NCCS2)c(=O)c1N=Nc1ccccc1	-9	0.0%	1	3	11%	-1.1	3
CCOc1ccc(NCc2nnc(SCc3ccc(Cl)cc3)n2-c2ccccc2)cc1	-20	?	?	?	14%	-3.2	22
COc1ccc(CCNc2oc(-c3ccccc3OC)nc2C#N)cc1OC	-14	-0.7%	?	-25	5%	-2.6	-6
COc1ccc(CCNC(=O)CN(Cc2ccc(Cl)cc2)S(C)(=O)=O)cc1	-16	0.4%	5	·	6%	-5.1	4
Cc1cc(C(=O)NCc2cc(C)n(C)n2)sc1-c1ccccc1	-6	?	-1	1	-4%	1.7	-10
Fc1cc(Cl)ccc1NC1=NCCCCC1	-6	0.3%	-12	8	1%	-2.7	13
Cc1ccc(S(=O)(=O)Nc2ccc3c(c2)C(=O)N([C@H](C)CO)C[C@H](C)[C@@H](CN(C)Cc2ccc(-c4ccccc4)cc2)O3)cc1	-19	1.3%	-15	-17	·	-1.4	·
COC(=O)c1ccc(-c2csc(NC(=O)c3c(C)noc3C)n2)cc1	4	9.2%	-8	0	·	0.8	2
COc1ccc(OC(C)C(=O)N2CC(C)OC(C)C2)cc1 (stereo not given)	1	·	4	10	14%	0.6	26
CC(C)(C)CN1CCNC(=O)C1CC(=O)N1CCC(C(=O)N2CCOCC2)CC1 (stereo not given)	-3	1.8%	15	·	23%	5.3	-2
Cc1cc(Cl)n2c(nc3cc(F)c(F)cc32)c1C#N	-15	-0.6%	0	3	-2%	-6.4	1
COc1ccc(-c2cc(C(=O)Nc3cc(C)nn3-c3ccccc3)no2)cc1	7	4.3%	-5	-9	11%	-0.6	-2
O=[N+]([O-])c1ccc(C[n+]2cccc(O)c2)cc1	-6	0.4%	10	5	·	-0.8	-4
CCOc1cc(C(=O)Nc2nnc(C)s2)cc(OCC)c1OCC	-1	0.3%	3	2	0%	-1.0	-6
COCCNC(=O)C1(C)Cc2c(-c3cccc(NC(C)=O)c3)ccnc2O1 (stereo not given)	-10	13%	12	0	·	-3.1	·
COCCn1cnc2c(c1=O)c1nc3ccccc3nc1n2/N=C/c1ccco1	0	11%	4	6	1%	-2.2	7
C=CCn1c(-c2cnn(-c3ccccc3)c2N)n[nH]c1=S	-11	0.1%	2	2	-7%	-3.7	28
C=CCn1c(O)c2ccc(C(=O)N=NC(=O)COc3ccccc3F)cc2c1O	-18	0.5%	-2	4	·	-3.3	-9
CCCc1cc(=O)oc2cc(OCC(=O)N3CCC(C(N)=O)CC3)ccc12	-32	1.7%	1	-4	5%	-5.0	-9
CCN1C(=O)[C@H]2[C@@H](c3ccc(C)cc3)N3C(=O)N(c4ccc(OC)cc4)C(=O)[C@@]3(CC)[C@H]2C1=O	0	2.4%	0	·	·	-0.7	-17
O=C1c2ccccc2C(=O)N1CC(O)COc1ccc(Cl)cc1 (stereo not given)	-1	5.0%	-2	4	12%	-1.2	17

Quoted from the results shown (2 entries):
structure	D2 potentiator	PINK1 expr mod	Six1-Eya2 blk	CtBP-E1A inh	Sfp PPTase inh	D2 agonist	TRPV1 PAM
Cc1cc(Cl)n2c(nc3cc(F)c(F)cc32)c1C#N	-15	-0.6%	0	3	-2%	-6.4	1
COc1ccc(-c2cc(C(=O)Nc3cc(C)nn3-c3ccccc3)no2)cc1	7	4.3%	-5	-9	11%	-0.6	-2

New compounds follow.
structure	D2 potentiator	PINK1 expr mod	Six1-Eya2 blk	CtBP-E1A inh	Sfp PPTase inh	D2 agonist	TRPV1 PAM
O=C(CCNc1cccc(C(F)(F)F)c1)c1ccco1	-4	10.0%[38.3 µM]	-1	-4	14%	-3.4	-23
COc1ccc(-n2nnnc2-c2cnc(N3CCCC3)nc2C(F)(F)F)cc1	-3	4.9%	-1	5	5%	-3.3	-19
COc1cc(C(=O)NCCCNc2nc3c(C)cc(C)cc3cc2C#N)cc(OC)c1OC	2	-0.9%	10	22	2%	5.2	17
COc1ccc(NS(=O)(=O)c2cc(NC(=O)C3CCCO3)ccc2N2CCCCC2)cc1 (stereo not given)	-7	1.9%	8	·	-4%	-1.8	-5
O=C(Nc1ccc(Cl)cc1)c1ccc2nsnc2c1	-12	3.2%	3	3	18%	-3.8	-15
O=C(NCCCN1CCCC1=O)C1CCN(S(=O)(=O)c2cccc(C(F)(F)F)c2)CC1	-21	2.7%	-6	3	·	-3.8	6
C[C@@H]1CCCCO[C@H](CN(C)Cc2ccc(Cl)c(Cl)c2)[C@H](C)CN([C@@H](C)CO)C(=O)c2cc(NC(=O)Nc3ccc(F)cc3)ccc2O1	-12	9.2%	-8	-14	·	-4.7	·
O=C(Nc1cc(Cl)ccc1N1CCOCC1)c1ccc(=O)[nH]c1	-18	-1.3%	11	-14	·	-2.7	·
CCC(C)C(=O)Nc1nc2c(s1)C(=O)CC(C)(C)C2 (stereo not given)	-5	3.1%	-8	0	6%	-4.7	-4
CSc1ccc(CN2CCC(C)(Oc3ccccc3)C2)cc1 (stereo not given)	-13	14%	-10	0	·	4.1	·
CC(C)N(CCCNC(=O)CC1Oc2ccccc2NC1=O)Cc1ccccc1 (stereo not given)	-10	-0.4%	3	5	-5%	-2.4	-5
CCn1cc(C(=O)NCc2ccc(Cl)cc2)c(=O)c2cc(S(=O)(=O)N3CCOCC3)ccc21	-2	3.8%	-13	2	6%	-4.2	23
COc1ccc(-c2nc3ccc(C)cn3c2Cc2ccc(C)cc2)cc1OC	-10	0.5%	-6	-14	·	-6.4	·
COc1ccc(S(=O)(=O)N(C)C[C@H]2Oc3c(NC(=O)C4CC4)cccc3C(=O)N([C@H](C)CO)C[C@@H]2C)cc1	-14	0.0%	2	-9	·	-5.6	·
O=S(=O)(/C=C/c1ccccc1)N1CCN(Cc2ccc3c(c2)OCO3)CC1	-8	-1.7%	-20	-12	-7%	-2.4	-2
Oc1ccccc1C1=NC(c2ccccc2)NC(c2ccccc2)C1 (stereo not given)	-8	0.6%	14	-21	·	-0.4	·
Cc1cccc(N2CC(C(=O)OCC(=O)c3ccc(OC(=O)c4cccs4)cc3)CC2=O)c1C (stereo not given)	-8	1.6%	?	-1	-1%	-2.2	2
CCc1ccc(C2=NN(CCC(=O)NCc3cccs3)C(=O)CC2)cc1	-8	-0.8%	2	·	-15%	-3.2	9
CCOC(=O)c1cc(C#N)c(N2CCN(C(=O)c3cccc(C(F)(F)F)c3)CC2)nc1C(F)(F)F	-11	0.8%	7	13	16%	0.3	·
Cc1nc(N2CCN(c3ccccn3)CC2)c2c(C)c(C(=O)Nc3ccc(F)c(Cl)c3)sc2n1	-8	0.3%	-2	2	7%	-1.0	-8
Cc1ccc2nnnc(-c3ccccc3)c2c1	1	-1.6%	3	6	7%	2.7	1

17 structures out of the list, arranged by length of the SMILES, descending.
structure	D2 potentiator	PINK1 expr mod	Six1-Eya2 blk	CtBP-E1A inh	Sfp PPTase inh	D2 agonist	TRPV1 PAM
C[C@@H]1CCCCO[C@H](CN(C)Cc2ccc(Cl)c(Cl)c2)[C@H](C)CN([C@@H](C)CO)C(=O)c2cc(NC(=O)Nc3ccc(F)cc3)ccc2O1	-12	9.2%	-8	-14	·	-4.7	·
COc1ccc(S(=O)(=O)N(C)C[C@H]2Oc3c(NC(=O)C4CC4)cccc3C(=O)N([C@H](C)CO)C[C@@H]2C)cc1	-14	0.0%	2	-9	·	-5.6	·
CCOC(=O)c1cc(C#N)c(N2CCN(C(=O)c3cccc(C(F)(F)F)c3)CC2)nc1C(F)(F)F	-11	0.8%	7	13	16%	0.3	·
Cc1nc(N2CCN(c3ccccn3)CC2)c2c(C)c(C(=O)Nc3ccc(F)c(Cl)c3)sc2n1	-8	0.3%	-2	2	7%	-1.0	-8
Cc1cccc(N2CC(C(=O)OCC(=O)c3ccc(OC(=O)c4cccs4)cc3)CC2=O)c1C (stereo not given)	-8	1.6%	?	-1	-1%	-2.2	2
O=C(NCCCN1CCCC1=O)C1CCN(S(=O)(=O)c2cccc(C(F)(F)F)c2)CC1	-21	2.7%	-6	3	·	-3.8	6
COc1ccc(NS(=O)(=O)c2cc(NC(=O)C3CCCO3)ccc2N2CCCCC2)cc1 (stereo not given)	-7	1.9%	8	·	-4%	-1.8	-5
COc1cc(C(=O)NCCCNc2nc3c(C)cc(C)cc3cc2C#N)cc(OC)c1OC	2	-0.9%	10	22	2%	5.2	17
O=S(=O)(/C=C/c1ccccc1)N1CCN(Cc2ccc3c(c2)OCO3)CC1	-8	-1.7%	-20	-12	-7%	-2.4	-2
COc1ccc(-n2nnnc2-c2cnc(N3CCCC3)nc2C(F)(F)F)cc1	-3	4.9%	-1	5	5%	-3.3	-19
CCc1ccc(C2=NN(CCC(=O)NCc3cccs3)C(=O)CC2)cc1	-8	-0.8%	2	·	-15%	-3.2	9
O=C(Nc1cc(Cl)ccc1N1CCOCC1)c1ccc(=O)[nH]c1	-18	-1.3%	11	-14	·	-2.7	·
Oc1ccccc1C1=NC(c2ccccc2)NC(c2ccccc2)C1 (stereo not given)	-8	0.6%	14	-21	·	-0.4	·
CCC(C)C(=O)Nc1nc2c(s1)C(=O)CC(C)(C)C2 (stereo not given)	-5	3.1%	-8	0	6%	-4.7	-4
CSc1ccc(CN2CCC(C)(Oc3ccccc3)C2)cc1 (stereo not given)	-13	14%	-10	0	·	4.1	·
O=C(Nc1ccc(Cl)cc1)c1ccc2nsnc2c1	-12	3.2%	3	3	18%	-3.8	-15
Cc1ccc2nnnc(-c3ccccc3)c2c1	1	-1.6%	3	6	7%	2.7	1

From PubChem
